Source: PubChem (National Center for Advancing Translational Sciences (NCATS))
PINK1 expr mod – A Quantitative High throughput Screen to Identify Chemical Modulators of PINK1 Expression; PINK1 immunofluorescence, high-content cytometry, 24 h; Potency, µM (highest dose often 76.6 µM), for inactives: top-dose activation (PINK1 increase), actives largely listed as activators; 410,000 compounds, 0.2% hits; active = well fitted activation curve with a large enough effect; inconclusive = small, poorly fitted or top-dose-only effect; inactive = flat fitted curve, though single readings scatter; cell line not stated here;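 further: potency means the concentration at half of the fitted maximal effect; % of control where 0% means no effect; nearly all actives have a fitted effect of over 65% in size; a mitochondrial uncoupler was the plate control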
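Readout is PINK1 immunofluorescence, quantified alongside mitochondrial, cell and nuclear markers by laser-scanning microplate cytometry. Cells from a stable line were exposed to compound titrations (5 concentrations) for 24 hours, with CCCP controls.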
Menin-MLL FL inh – qHTS Assay for Inhibitors Targeting the Menin-MLL Interaction in MLL Related Leukemias: Competition With Fluorescein Labeled MLL-derived Peptide. AID 1766, 2009. FP activity change, % at 61.4 µM. 290,000 tested, under 10 active. Fluorescence polarization, fluorescein-MLL peptide displacement from menin; inconclusive = falling polarisation curve, or a change in total fluorescence; inactive = total fluorescence flat and polarisation flat or rising; no compound was filed as active; the % refers to the polarisation; negative = inhibition;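 further: % of control where 0% means no effect; inhibitors lower the polarisation; unlabelled MLL peptide was the positive control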
ClpP mod – qHTS Assay for Activators of ClpP; 340,000 compounds, 1.9% hits; Potency, µM (doses to about 57.5 µM), for the others: at the top dose activity change, negative = active; ATP-dependent Clp protease proteolytic subunit (Bacillus subtilis (strain 168)), P80244; AID 651965, 2013; purified B. subtilis ClpP, FRET peptide cleavage, 20 min; active = well fitted falling curve with a large enough effect; inconclusive = small, poorly fitted or top-dose-only effect; inactive = no such curve, though single readings can be large or run the other way; further: potency means the concentration at half of the fitted maximal effect; the source files actives as falling curves though it sought activators and does not explain the sign; nearly all actives have a fitted effect of over 65% in size; many hits overshoot -100%
Target sequence (P80244 whole entry, looked up): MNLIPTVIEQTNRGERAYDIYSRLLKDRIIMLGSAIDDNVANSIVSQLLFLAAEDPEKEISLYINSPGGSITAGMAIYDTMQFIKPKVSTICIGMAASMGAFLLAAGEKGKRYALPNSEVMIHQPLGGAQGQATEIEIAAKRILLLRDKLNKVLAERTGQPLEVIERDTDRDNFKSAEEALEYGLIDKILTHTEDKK
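FRET quenching reversal measured ClpP activation: 10 microg/mL B. subtilis ClpP at pH 8 with the FRET-FV decapeptide, read at 430 nm after 320 nm excitation. The 20-min minus 0-min signal was scaled between DMSO/no-enzyme wells and ADEP (5.8 microM final).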
Sfp PPTase inh – qHTS Assay for Inhibitors of Bacillus subtilis Sfp phosphopantetheinyl transferase (PPTase). Potency, µM, for inactives: max response, negative = inhibition, actives largely listed as inhibitors. AID 1490, 2009. 310,000 compounds, 3.5% hits. Biochemical Sfp PPTase activity, qHTS. 4'-phosphopantetheinyl transferase ffp (Bacillus subtilis), Q9F4F7; active means well fitted inhibition curve with a large enough effect; inconclusive means small, poorly fitted or top-dose-only effect, or another doubt; inactive means no such curve, though single readings can be large or run the other way;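 further: the enzyme is Sfp with the accession as filed and its product quenches rhodamine fluorescence; potency means the concentration at half of the fitted maximal effect; 0% = enzyme reaction without inhibitor and -100% = no enzyme wells; top concentration of the series not given in the record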
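Fluorescence-quenching assay with 15 nM Sfp, 5 uM rhodamine-CoA and 12.5 uM BHQ-2-labelled ybbR peptide in pH 7.6 Hepes/MgCl2 buffer. Enzyme was pre-incubated with compound for 15 min at room temperature. Rate was taken from the 30-min fluorescence change (525/598 nm).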
TRPML1 blocker – qHTS for Inhibitors of the Human Mucolipin Transient Receptor Potential 1 (TRPML1). 390,000 compounds, 0.02% hits. TRPML1-inducible cells, Ca2+ dye fluorescence, FDSS; stronger effect = lower value; inhibition of EC80 agonist-evoked calcium signal. AID 624415, 2012. activity change, negative = inhibition, % (no concentration beside the values); in the data active means activity change below about -50%; inconclusive means about -30% to -50%; inactive means above about -30%;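 further: stimulus is agonist 54-4 at its EC80 concentration; on the % scale 0 is the no-effect control and ±100 the full control effect; compound concentration not given in the record; the text of the record puts the active cut at -80%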
Target sequence (Q9GZU1 whole entry, looked up): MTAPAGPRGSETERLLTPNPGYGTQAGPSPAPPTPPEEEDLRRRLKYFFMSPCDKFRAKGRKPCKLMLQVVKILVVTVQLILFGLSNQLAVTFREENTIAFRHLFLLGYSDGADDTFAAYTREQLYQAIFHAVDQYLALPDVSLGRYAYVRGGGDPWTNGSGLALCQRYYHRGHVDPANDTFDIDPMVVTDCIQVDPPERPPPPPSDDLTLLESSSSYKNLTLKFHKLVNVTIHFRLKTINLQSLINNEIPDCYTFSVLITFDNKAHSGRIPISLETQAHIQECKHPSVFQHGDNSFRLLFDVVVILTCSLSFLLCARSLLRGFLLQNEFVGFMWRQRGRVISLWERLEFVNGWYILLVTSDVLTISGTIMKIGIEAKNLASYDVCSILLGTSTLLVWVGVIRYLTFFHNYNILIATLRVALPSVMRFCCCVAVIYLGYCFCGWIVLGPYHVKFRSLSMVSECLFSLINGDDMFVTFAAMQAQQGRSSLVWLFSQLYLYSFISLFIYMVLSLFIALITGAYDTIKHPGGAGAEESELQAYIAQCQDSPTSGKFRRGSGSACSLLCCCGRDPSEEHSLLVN
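TRPML1-DL cells, Tet-induced overnight (~16 h, 37 °C) at 1,500 cells/well, were loaded with Ca8 no-wash dye plus quencher for 45-90 min at room temperature. Compounds were pinned during FDSS kinetic reading; agonist 54-4 at EC80 (4 uM final) then added.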
TRPML1 ag – qHTS for Agonists of the Human Mucolipin Transient Receptor Potential 1 (TRPML1); Mucolipin-1 (Homo sapiens), Q9GZU1; TRPML1-expressing cells, Ca2+ dye fluorescence, FDSS; host cell line not named in the record; reference of the full effect not given here; 410,000 compounds, 0.12% hits; activation, % (concentration not given with the values); in the data active = activation above about 50%; inconclusive = about 30% to 50%; inactive = below about 30%; further: 0% is about no effect; the text of the record puts the active cut at 80%
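TRPML1-DL cells, Tet-induced overnight (~16 h, 37 degrees C), loaded 45-90 min at room temperature with Ca8 no-wash calcium dye plus quencher. FDSS fluorescence: 10 s baseline, compound pin-transfer, 110 s agonist read, then EC80 54-4 (4uM final) and 110 s antagonist read.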
TRPV1 potentiator – HTS Assay for Compounds that Act as Potentiators of the Vanilloid Receptor 1. TRPV1-expressing cells, Fluo-8 calcium influx, capsaicin EC20 potentiation; host cell line not named in the record; control for the full effect not named in the record. potentiation, % at 8.33 µM. 320,000 compounds, 0.02% hits. Transient receptor potential cation channel subfamily V member 1 (Homo sapiens), Q8NER1. AID 540277, 2011; active means potentiation above 80%; inconclusive means 30% to 80%; inactive means below 30%; further: 0% is about no effect
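TRPV1-expressing cells were cultured overnight at 35.5C and loaded with Fluo-8 calcium dye for 40 to 90 min at room temperature. After a 10 s baseline, compound was added and calcium influx was read kinetically for 3 min (ex 480/em 520 nm).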
* marks the source's active call; other numbers are inactive results; u = inconclusive; x = no result given; [ ] = remark or other dose.

SMILES	PINK1 expr mod	Menin-MLL FL inh	ClpP mod	Sfp PPTase inh	TRPML1 blocker	TRPML1 ag	TRPV1 potentiator
COc1ccc(NC(=O)CN2CCC(Cc3ccccc3)CC2)cc1S(=O)(=O)N1CCOCC1	-0.2%	7.5	-9.5%	0%	-4	-0.3	-13
CC1CC1C(=O)OCC(=O)Nc1ccc(N=Nc2ccccc2)cc1 (configuration not stated)	1.3%	-0.1	-0.8%	-14%	-1	2.7	15
CC(=O)NC(C)(c1ccccc1)c1nc(-c2cccc(C#N)c2)cs1 (configuration not stated)	2.2%	x	0.3%	x	x	-1.1	x
CC(=O)Nn1cnc2c(c1=O)C1(CCCCC1)Cc1ccccc1-2	1.2%	-0.1	-0.8%	7%	-13	-1.4	-10
COc1ccc([N+](=O)[O-])cc1NS(=O)(=O)c1ccc(C(=O)N2CCCC2)cc1	1.2%	x	-3.0%	x	8	0.9	-5
COc1ccc(Nc2nnc(SCC3CCCCO3)s2)cc1 (configuration not stated)	0.4%	-1.3	0.1%	-17%	17	1.2	-13
Cc1n[nH]c(C)c1S(=O)(=O)N1CCN(c2ccccn2)CC1	-2.0%	3.7	u	2%	4	-0.9	-9
O=S(=O)(NCCN1CCOCC1)c1cc(Cl)ccc1Cl	0.7%	-0.3	x	14%	10	-0.2	u
COc1ccc(CC(=O)NCC2(c3ccc(OC)c(OC)c3)CCOCC2)cc1	-0.5%	4.7	-0.4%	-17%	0	0.0	-3
O=C(N/N=C/c1ccc(OCC(=O)N2CCCCC2)cc1)c1ccccc1	-4.5%[38.3 µM]	0.1	-3.0%	21%	0	0.3	2
O=C(O)/C=C/C(=O)Nc1ccccc1-c1ccccc1NC(=O)/C=C/C(=O)O	-1.1%	-0.1	-2.0%	7.9µM*	30	0.7	-6
O=C(NC1CCCCC1)C(c1ccco1)N(C(=O)c1csnn1)c1cccc(Cl)c1 (configuration not stated)	4.6%	1.0	-0.6%	6%	-3	-0.8	-4
CC(=NNC(=O)c1ccc2nc[nH]c2c1)c1ccc(Br)cc1	-2.4%	x	x	x	-10	1.5	x
CCc1ccccc1NC(=O)C(Cc1ccccc1)c1nn[nH]n1 (configuration not stated)	-0.3%	1.2	-0.6%	u	5	-0.6	-1
O=C(Cc1ccccc1)Nc1ccc(C(=O)NCC2COc3ccccc3O2)cc1 (configuration not stated)	11%	6.3	-1.6%	20%	-5	-0.1	7
CC(=O)n1cc([C@H]2C=C(C(=O)N3CCN(Cc4ccccc4)CC3)O[C@@H](OCc3ccc(CO)cc3)C2)c2ccccc21	0.8%	u	-1.5%	-6%	-2	0.0	14
Cc1cc(C)cc(C(O)c2ncc(-c3cccc(C(F)(F)F)c3)[nH]2)c1 (configuration not stated)	20%	x	-1.3%	x	x	-0.6	x
CN(C)S(=O)(=O)c1ccc(Cl)c(NC(=O)COc2ccccc2[N+](=O)[O-])c1	u	-0.4	-3.4%	-8%	29	1.7	2
NC(=O)c1cc(S(=O)(=O)NCC2CCC(C(=O)Nc3ccc(Cl)cc3)CC2)cs1 (configuration not stated)	1.6%	x	1.4%	x	6	-0.4	x
CCN(CC)S(=O)(=O)c1ccc(N2CCCC2)c(NS(=O)(=O)c2ccc(F)cc2)c1	1.9%	12	-1.7%	0%	27	0.1	-7
CN(Cc1ccco1)c1nc(-c2cccnc2)nc2ccccc12	-0.1%	6.1	x	-10%	x	x	x
COc1ccc(OC)c(C2CC(=O)Oc3c2c(=O)n(C)c2ccccc32)c1 (configuration not stated)	0.1%	x	5.2%	x	-6	2.0	x
CC(C)[C@H](NC(=O)c1ccccc1Cl)C(=O)OCC(=O)Nc1ccc(S(=O)(=O)N2CCOCC2)cc1	-1.1%	x	x	x	15	0.1	x
CC1(C)O[C@@H]2[C@H](O1)[C@@H](COS(=O)(=O)O)O[C@H]2n1cc(Br)c(=O)[nH]c1=O	0.6%	x	1.6%	x	-1	-0.3	x
CCc1nc2ccc(C(=O)NCc3ccc(OC)cc3)cn2c1N(C)Cc1ccc(OC)cc1	0.6%	x	0.1%	x	x	-1.3	x
Cc1ccc(-n2c(SCC(=O)Nc3cccc(S(=O)(=O)NC4=NCCCCC4)c3)nc3ccccc3c2=O)cc1C	1.2%	4.8	0.7%	9%	-4	0.3	6
COc1cccc(CNC(=O)CCCSc2ccccc2)c1	-0.3%	0.0	x	0%	-2	-0.1	-19
CSc1ccc(CN(C)C(=O)c2cc(S(=O)(=O)NCc3ccccc3)ccc2C)cc1	1.1%	x	0.8%	x	4	-0.4	6
O=C(NCCc1ccccc1Cl)c1ccc2c(c1)nc1n2CCCCC1	1.2%	x	-1.1%	x	-8	0.8	x
O=C(Nc1ccc(N2CCOCC2)cc1)c1ccc(-c2ccccc2[N+](=O)[O-])o1	0.0%	-3.6	-0.9%	u	-8	1.2	1
Cc1nn(Cc2c(F)c(F)c(F)c(F)c2F)c(C)c1NC(=O)c1cccc(COc2ccccc2Cl)c1	29%[38.3 µM]	-2.0	0.0%	8%	43	0.3	-8
O=S(=O)(c1ccc(Cl)cc1)N1CCN(S(=O)(=O)N2CCCCCC2)CC1	0.6%	2.1	x	7%	1	-1.3	10
COc1ccc(S(=O)(=O)N2CCC(C(=O)Nc3ccccc3)CC2)cc1OC	1.6%	x	-0.6%	x	8	-0.8	x
Cc1ccc(C(=O)Nc2ncc(Cc3ccc(F)cc3)s2)o1	16%[38.3 µM]	0.8	-5.8%	-12%	10	-0.6	-31
O=C(N1CCOCC1)N1CCC(c2nc(-c3ccc(S(=O)(=O)N4CCOCC4)cc3)no2)CC1	-0.7%	4.5	3.9%	8%	27	1.8	18
CC(C)(C)Nc1c(N)c(=O)oc2ccccc12	-1.6%	0.2	6.9%	4%	4	0.1	4
CC(C)(CC(=O)O)CC(=O)N1CCN(c2nc3ccc(Cl)cc3s2)CC1	1.6%	-5.2	0.6%	11%	x	x	-4
COc1cccc(C(=O)/C=C/c2ccc(OCC#N)c(OC)c2)c1	-3.0%	-1.1	-27%	-10%	-3	-0.3	-7
CCCc1nc2sc3c(N4CCC(C)CC4)ncnc3c2c2c1CCCC2	0.8%	x	-14%	x	-14	-0.3	x
O=C(OC1CCOC1=O)c1cc(-c2ccccc2)nc2ccccc12 (configuration not stated)	2.8%	3.2	26%	3%	-9	1.9	-5

Results in Sfp PPTase inh, ClpP mod and TRPV1 potentiator, for some of the entries so far:
| SMILES | Sfp PPTase inh | ClpP mod | TRPV1 potentiator |
| --- | --- | --- | --- |
| COc1cccc(CNC(=O)CCCSc2ccccc2)c1 | 0% | x | -19 |
| Cc1ccc(C(=O)Nc2ncc(Cc3ccc(F)cc3)s2)o1 | -12% | -5.8% | -31 |
| Cc1ccc(-n2c(SCC(=O)Nc3cccc(S(=O)(=O)NC4=NCCCCC4)c3)nc3ccccc3c2=O)cc1C | 9% | 0.7% | 6 |
| CC(C)(C)Nc1c(N)c(=O)oc2ccccc12 | 4% | 6.9% | 4 |

Carrying on.
SMILES	PINK1 expr mod	Menin-MLL FL inh	ClpP mod	Sfp PPTase inh	TRPML1 blocker	TRPML1 ag	TRPV1 potentiator
CSc1ccc(Cn2c(C)c(C(=O)NCc3ccccc3C(F)(F)F)sc2=O)cc1	0.3%	x	-1.3%	x	x	-0.3	x
N#CC1=C(N)C(C#N)(C#N)C(c2ccc[nH]2)C2CCCC=C12 (configuration not stated)	-2.4%[38.3 µM]	u	-11%	56µM*	-20	0.6	-1
COc1ccc(C(=O)NC2CCN(S(=O)(=O)c3ccccc3F)CC2)cc1	0.8%	-1.5	0.1%	14%	-1	0.9	-23
Cc1cccc(OCCCC(=O)NCC(=O)Nc2cccc(C)c2C)c1	1.1%	-4.6	x	14%	3	-0.7	5
COc1ccc(NC(=O)CCNS(=O)(=O)c2ccc3c(c2)CC(C)N3C(C)=O)cc1 (configuration not stated)	0.3%	-5.0	-1.1%	15%	-11	-0.4	9
C#CCOCCOCCOCCNc1nc(N2CCN(C(=O)C([C@@H](C)CC)n3cc(C(N)CC(C)C)nn3)CC2)nc(N2CCN(C(=O)[C@H](CCC(=O)O)n3cc(C(N)[C@H](C)CC)nn3)CC2)n1 (some centres not stated)	0.0%	-4.7	0.8%	17%	-10	-0.8	17
COc1ccc(CN2CCNC(=O)C2CC(=O)NC2CCCC2)c(C)c1C (configuration not stated)	0.4%	-1.1	-1.6%	-5%	10	-0.1	-8
OCC1(Cc2ccccc2)CCCN(Cc2cnn(-c3ccccc3)c2)C1 (configuration not stated)	2.0%	-1.0	x	12%	10	1.1	6
CCCCn1c(=NC(=O)c2ccco2)c(C(=O)OCC)cc2c(=O)n3cccc(C)c3nc21	8.9%	1.5	3.8%	-30%	6	3.2	4
C/C(N)=C(/C#N)C(=O)CSc1nnc(Nc2ccccc2)s1	-0.1%	-3.0	x	-4%	-13	-1.0	10
Cn1nccc1NC(=O)Nc1ccccc1	-1.8%	3.9	-3.2%	10%	11	1.7	-3
CC1CCN(C(=O)c2[nH]cnc2C(=O)N2CCN(c3ccccc3)CC2)CC1	0.8%	x	0.6%	x	29	-0.5	0
COc1ccccc1C(=O)NCCN1CCCC1	0.4%	x	-19%	x	10	-0.9	x
CC(C)CN1CCN(Cc2cccn2-c2cccnc2)CC1CCO (configuration not stated)	0.7%	-9.0	x	10%	-15	-0.5	10

Quoted at random: 2 compounds from above.
SMILES	PINK1 expr mod	Menin-MLL FL inh	ClpP mod	Sfp PPTase inh	TRPML1 blocker	TRPML1 ag	TRPV1 potentiator
COc1ccc(C(=O)NC2CCN(S(=O)(=O)c3ccccc3F)CC2)cc1	0.8%	-1.5	0.1%	14%	-1	0.9	-23
COc1ccc(CN2CCNC(=O)C2CC(=O)NC2CCCC2)c(C)c1C (configuration not stated)	0.4%	-1.1	-1.6%	-5%	10	-0.1	-8

Compounds as they come (roughly 4.4% active in at least one column).
